Assay outcomes: PubChem, National Center for Advancing Translational Sciences (NCATS)
D2 ag: agonists of human D2 dopamine receptor (beta-arrestin); DiscoveRx PathHunter D2 beta-arrestin, luminescence, 90 min; 100% = 57 uM dopamine signal; activation, % (no concentration beside the values); actives 0.084% (n = 360,000); AID 624465; in the data active = activation above about 40%; inconclusive = about 15% to 40%; inactive = below about 15%; further: compound concentration not given in the record; the text of the record calls up to 30% inactive
Target sequence (P14416 whole entry, looked up): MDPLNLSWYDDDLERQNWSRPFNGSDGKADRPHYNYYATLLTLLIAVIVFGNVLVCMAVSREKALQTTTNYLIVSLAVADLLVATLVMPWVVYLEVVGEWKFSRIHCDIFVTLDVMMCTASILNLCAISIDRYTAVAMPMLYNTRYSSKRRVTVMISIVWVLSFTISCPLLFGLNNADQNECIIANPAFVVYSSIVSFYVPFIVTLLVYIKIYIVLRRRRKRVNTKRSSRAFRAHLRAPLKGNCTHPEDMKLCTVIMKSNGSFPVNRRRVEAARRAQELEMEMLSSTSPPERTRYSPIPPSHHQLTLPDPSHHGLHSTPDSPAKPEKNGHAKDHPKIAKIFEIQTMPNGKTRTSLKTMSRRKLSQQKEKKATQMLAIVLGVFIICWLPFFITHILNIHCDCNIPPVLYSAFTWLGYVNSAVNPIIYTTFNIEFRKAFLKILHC
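Agonist mode: compounds alone added to overnight-plated D2 PathHunter cells for 90 min at 37 C, with 57 uM final dopamine (EC100) defining full response. Beta-arrestin recruitment detected by chemiluminescent reagent, read after 1 h at ambient temperature.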
TRPML1 blocker: blocks the human TRPML1 channel; activity change, negative = inhibition, % (no concentration beside the values); TRPML1-inducible cells, Ca2+ dye fluorescence, FDSS; hits give low values; inhibition of EC80 agonist-evoked calcium signal; actives 0.02% (n = 390,000); Q9GZU1; AID 624415; in the data active means activity change below about -50%; inconclusive means about -30% to -50%; inactive means above about -30%;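 further: stimulus is agonist 54-4 at its EC80 concentration; on the % scale 0 is the no-effect control and ±100 the full control effect; compound concentration not given in the record; the text of the record puts the active cut at -80%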
Target sequence (Q9GZU1 whole entry, looked up): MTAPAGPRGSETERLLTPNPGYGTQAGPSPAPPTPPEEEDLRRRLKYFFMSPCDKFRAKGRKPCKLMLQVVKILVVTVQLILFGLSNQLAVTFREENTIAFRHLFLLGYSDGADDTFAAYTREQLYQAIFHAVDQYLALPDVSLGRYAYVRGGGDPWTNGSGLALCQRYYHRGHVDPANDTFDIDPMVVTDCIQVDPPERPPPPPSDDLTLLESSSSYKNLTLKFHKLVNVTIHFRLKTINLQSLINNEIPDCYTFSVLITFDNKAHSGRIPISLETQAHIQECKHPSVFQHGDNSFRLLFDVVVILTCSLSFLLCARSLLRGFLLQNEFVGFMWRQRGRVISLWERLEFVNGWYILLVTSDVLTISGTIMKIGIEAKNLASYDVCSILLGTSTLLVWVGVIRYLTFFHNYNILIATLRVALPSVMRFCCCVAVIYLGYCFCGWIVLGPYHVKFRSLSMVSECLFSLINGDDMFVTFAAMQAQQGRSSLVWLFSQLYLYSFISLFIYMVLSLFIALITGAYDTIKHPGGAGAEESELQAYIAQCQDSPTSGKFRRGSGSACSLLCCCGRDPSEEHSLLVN
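Calcium fluorescence in TRPML1-DL cells induced overnight with Tet: a 110 s read after compound pin addition, then a 110 s antagonist read after challenge with 54-4 at 4 uM final (EC80).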
CtBP-E1A inh: inhibitors of CtBP/E1A interaction; actives 0.49% (n = 340,000); activity change, % (concentration not given with the values); AlphaScreen GST-E1A/His-CtBP binding, 1536-well; hits give low values; control for the full effect not named in the record; in the data active means activity change below about -65%; inconclusive means about -30% to -65%; inactive means above about -30%; further: on the % scale 0 is the no-effect control and ±100 the full control effect
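Homogeneous bead-based format: GST-tagged E1A captured on glutathione donor beads, His-tagged CtBP on nickel acceptor beads; compounds precede bead addition by 2 h at 37 °C.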
Six1-Eya2 inh: Six1/Eya2 interaction inhibition | Q15475+O00167 | AlphaScreen GST-Six1/His-Eya2 binding, biochemical; hits give low values; control for the full effect not named in the record | activity change, % (concentration not given with the values) | actives 0.56% (n = 360,000) | AID 651725; in the data active = activity change below about -65%; inconclusive = about -30% to -65%; inactive = above about -30%; further: on the % scale 0 is the no-effect control and ±100 the full control effect
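AlphaScreen with GST-Six1 and His-Eya2 (5X mix: 250 nM and 500 nM), glutathione donor and nickel acceptor beads; buffer 50 mM Tris pH 8.0, 300 mM NaCl, 1 mM TCEP; 1 h at 37 C in the dark.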
TRPML1 agonist: activates the human TRPML1 channel. AID 624414. activation, % (no concentration beside the values). actives 0.12% (n = 410,000). TRPML1-expressing cells, Ca2+ dye fluorescence, FDSS; host cell line not named in the record; reference of the full effect not given here. Q9GZU1; in the data active = activation above about 50%; inconclusive = about 30% to 50%; inactive = below about 30%; further: 0% is about no effect; the text of the record puts the active cut at 80%
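TRPML1-DL cells, Tet-induced overnight (~16 h, 37 degrees C), loaded 45-90 min at room temperature with Ca8 no-wash calcium dye plus quencher. FDSS fluorescence: 10 s baseline, compound pin-transfer, 110 s agonist read, then EC80 54-4 (4uM final) and 110 s antagonist read.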
PINK1 modulator: modulators of PINK1 expression. PINK1 immunofluorescence, high-content cytometry, 24 h. actives 0.2% (n = 410,000). Potency, µM (series often up to 76.6 µM), without a hit: top-dose activation (PINK1 increase), usual class: activators; active = well fitted activation curve with a large enough effect; inconclusive = small, poorly fitted or top-dose-only effect; inactive = flat fitted curve, though single readings scatter; cell line not stated here;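 further: potency means the concentration at half of the fitted maximal effect; % of control where 0% means no effect; nearly all actives have a fitted effect of over 65% in size; a mitochondrial uncoupler was the plate control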
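Compound titrations (5 concentrations, 24 h) on a stable cell line; DMSO and CCCP controls. Endpoint: fixed-cell PINK1 immunofluorescence with mitochondrial, cell and nuclear markers, scanned by microplate cytometer.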
Numbers without * were called inactive; ? = inconclusive; · = not tested or not shown; [ ] = remark or other dose.

SMILES	D2 ag	TRPML1 blocker	CtBP-E1A inh	Six1-Eya2 inh	TRPML1 agonist	PINK1 modulator
C#CCOCCOCCOCCNc1nc(N2CCN(C(=O)[C@H]([C@@H](C)CC)n3cc([C@@H](N)CC(C)C)nn3)CC2)nc(N2CCN(C(=O)[C@H](Cc3ccc(O)cc3)n3cc([C@@H](N)C(C)CC)nn3)CC2)n1 (stereo not given in full)	-1.2	-8	-12	-12	-0.5	-1.2%
N#Cc1ccc(CSc2nnc(-c3ccccc3)n2Cc2ccco2)cc1	-1.6	-10	-7	-1	1.1	-4.9%[38.3 µM]
Cc1cccc(OCc2nnc(SCC(=O)Nc3ncc(C)s3)o2)c1	-5.6	8	-1	9	-0.7	1.9%
Cc1cccc(N2CCN(C(=O)C3CCN(S(=O)(=O)c4cccc5nsnc45)CC3)CC2C)c1 (stereo not given)	2.4	13	-9	-7	0.4	1.5%
Cc1cc(NCc2cccnc2)no1	-6.7	3	-5	-3	-0.3	-0.3%
CCOC(=O)c1sc(NC(=O)c2c(OC)cccc2OC)nc1C	-1.2	-1	-5	4	-0.8	-1.1%
CCCC(=O)N1CCC1(C)C(=O)NS(=O)(=O)c1cc(C)ccc1F (stereo not given)	-4.1	·	6	3	-0.5	1.8%
CC(C)(C)C(=O)NCc1ccc(C(=O)CSc2nnc3n2CCCCC3)s1	0.4	12	1	-1	-0.7	1.0%
O=C(CN(Cc1ccccc1Cl)C(=O)CCC(=O)Nc1nccs1)NCC1CCCO1 (stereo not given)	-0.2	-7	5	2	-0.5	-1.4%
Cc1ccc2oc(C(=O)N3CCCCCC3)c(C)c2c1	-2.3	0	3	7	0.6	2.9%
CC12CCC(C/C1=N/NC(=O)COc1ccccc1Cl)C2(C)C (stereo not given)	-5.0	-9	3	7	-0.5	0.9%
COc1ccc(NC(=O)c2ccc(NC3CC(=O)N(c4ccc(C)cc4C)C3=O)cc2)cc1 (stereo not given)	-3.5	-22	4	8	0.7	6.9%
COc1ccc(-c2nc(C#N)c(NCc3ccccc3Cl)o2)cc1OC	-0.9	19	7	-2	1.7	·
Cc1ccc(Sc2ncccc2COC(=O)Nc2c(C)cccc2C)cc1	0.5	0	19	16	0.0	6.3%
CCCCNC(=O)c1onc(CSc2ccccc2)c1C(=O)NCCCC	1.1	10	18	22	1.9	1.7%
Cc1cc(C)nc(/N=C(\N)Nc2cccc(OCc3ccccc3)c2)n1	-2.0	19	·	-5	?	?
C=CCNC(=O)C1CCN(C(=O)c2ccc(-c3ccccc3)cc2)CC1	-2.8	-5	0	0	-0.6	0.5%
OCCC1CN(Cc2ccc3cc(Cl)ccc3n2)CCN1Cc1ccsc1 (stereo not given)	-0.3	-9	-4	-6	-0.2	0.4%
COc1ccc(C(=O)Nc2cccc(NC(C)=O)c2)cc1OC	0.5	7	-1	9	0.0	-1.4%
CCOC(=O)c1cnn(-c2nc3c(C)cccc3s2)c1C(F)(F)F	-1.3	15	3	8	-0.6	3.5%
COc1ccc(CNC(=O)c2cc(-c3ccc(OC)c(OC)c3)nc3n[nH]c(-c4ccc(C)cc4)c23)cc1	·	-9	·	·	0.3	4.1%
O=C(CNC(=O)c1ccc(Br)o1)NC12CC3CC(CC(C3)C1)C2	-1.9	2	-2	-1	-0.6	0.3%
CCCNC(=O)C1(C)CCCN(C(=O)c2ccc3c(c2)CCO3)C1 (stereo not given)	-6.7	·	4	9	-0.4	0.5%
COc1ccccc1N1CCN(CC(O)c2ccc3cc[nH]c3c2)CC1 (stereo not given)	2.3	-8	-21	-2	0.3	1.5%
CCN(CC)CCNC(=S)Nc1ccc2nc(N3CCOCC3)cc(C)c2c1	-6.3	-2	·	7	0.1	-1.2%
CCOc1cccc2cc(C(=O)Nc3nccs3)c(=O)oc12	8.4	10	6	8	0.0	-1.9%
CN(C)CCCOC(=O)CCc1ccccc1	-1.7	5	3	6	-0.7	-0.2%
CCS(=O)(=O)NCc1csc(C)n1	-1.2	-3	15	5	0.0	-1.7%
O=C(C[C@@H]1C/C=C\C[C@@H](NC(=O)OCC2c3ccccc3-c3ccccc32)C(=O)OC[C@@H](Cc2ccccc2)NC1=O)NCCO	-7.7	19	4	15	-0.2	-0.7%
CCOC(Cn1c(CCCO)nc2ccccc21)OCC	-1.2	9	-7	2	0.5	-1.4%
Cc1ccnc(NS(=O)(=O)c2ccc(N=CC3=C(O)CC(C)(C)CC3=O)cc2)n1	-0.7	0	3	11	-0.4	-20%[38.3 µM]
CC(C)=NNc1nc2c(c(=O)n(C)c(=O)n2C)n1CCc1ccccc1	-2.2	-9	0	-1	-0.7	-0.8%
O=C(O)CCCCCNC(=O)c1ccccc1	-1.3	-8	-1	3	-0.2	3.3%
COc1ccc(CCN(Cc2nc3ccccc3c(=O)[nH]2)C(=O)c2ccco2)cc1	-1.2	4	-6	-3	2.1	0.8%
CCC(C)NS(=O)(=O)c1cc2c3c(c1)CCN3C(=O)CC2 (stereo not given)	-1.8	0	·	10	-0.5	3.9%
CCc1ccc(C2C(C(=O)Nc3ccc(Cl)cc3)=C(C)Nc3ncnn32)cc1 (stereo not given)	·	7	·	·	1.3	-1.8%
CCn1cc(C(=O)N2CCc3ccccc32)c(=O)c2cc(S(=O)(=O)N3CCOCC3)ccc21	-1.5	21	-15	-2	-0.1	1.4%
O=C(CSc1nnc2ccccn12)Nc1ccc(S(=O)(=O)N2CCOCC2)cc1	-5.7	-19	6	2	-1.1	2.0%
Cc1ccc(NS(=O)(=O)c2ccc3c(c2)C(=O)c2ccccc2C3=O)c(C)c1	4.8	-4	-23	-22	-0.1	13%
CC(C)(Cc1ccccc1)/[N+]([O-])=C\c1ccccc1	-3.7	-4	1	-2	-0.7	0.4%
Cc1ccccc1SC1CCN(C(=O)C2CCC(=O)N(C3CC3)C2)CC1 (stereo not given)	-0.1	-5	1	2	-0.6	1.6%
CCOc1ccc(NC(=O)c2cc3c(=O)n4cccc(C)c4nc3s2)cc1	·	2	·	·	2.9	-0.6%
O=C1CSC(c2ccccc2)N1CC12CC3CC(CC(O)(C3)C1)C2 (stereo not given)	-1.6	-10	2	1	1.1	-2.7%
COCCN(CCOC)c1nc(-c2ccc(C)cc2)nc2ccccc12	5.6	0	·	-2	0.7	4.1%
CCOC(=O)/C(C#N)=C/c1cc2ccccc2nc1N1CCOCC1	-2.6	0	5	2	0.0	-1.3%

Another view of some results above:
Values run as follows: D2 ag	TRPML1 blocker	CtBP-E1A inh	Six1-Eya2 inh	TRPML1 agonist	PINK1 modulator
C#CCOCCOCCOCCNc1nc(N2CCN(C(=O)[C@H]([C@@H](C)CC)n3cc([C@@H](N)CC(C)C)nn3)CC2)nc(N2CCN(C(=O)[C@H](Cc3ccc(O)cc3)n3cc([C@@H](N)C(C)CC)nn3)CC2)n1 (stereo not given in full)
→ -1.2	-8	-12	-12	-0.5	-1.2%
N#Cc1ccc(CSc2nnc(-c3ccccc3)n2Cc2ccco2)cc1
→ -1.6	-10	-7	-1	1.1	-4.9%[38.3 µM]
Cc1cccc(OCc2nnc(SCC(=O)Nc3ncc(C)s3)o2)c1
→ -5.6	8	-1	9	-0.7	1.9%
Cc1cccc(N2CCN(C(=O)C3CCN(S(=O)(=O)c4cccc5nsnc45)CC3)CC2C)c1 (stereo not given)
→ 2.4	13	-9	-7	0.4	1.5%
Cc1cc(NCc2cccnc2)no1
→ -6.7	3	-5	-3	-0.3	-0.3%
CCOC(=O)c1sc(NC(=O)c2c(OC)cccc2OC)nc1C
→ -1.2	-1	-5	4	-0.8	-1.1%
CCCC(=O)N1CCC1(C)C(=O)NS(=O)(=O)c1cc(C)ccc1F (stereo not given)
→ -4.1	·	6	3	-0.5	1.8%
CC(C)(C)C(=O)NCc1ccc(C(=O)CSc2nnc3n2CCCCC3)s1
→ 0.4	12	1	-1	-0.7	1.0%
O=C(CN(Cc1ccccc1Cl)C(=O)CCC(=O)Nc1nccs1)NCC1CCCO1 (stereo not given)
→ -0.2	-7	5	2	-0.5	-1.4%
Cc1ccc2oc(C(=O)N3CCCCCC3)c(C)c2c1
→ -2.3	0	3	7	0.6	2.9%
CC12CCC(C/C1=N/NC(=O)COc1ccccc1Cl)C2(C)C (stereo not given)
→ -5.0	-9	3	7	-0.5	0.9%

More results follow.
SMILES	D2 ag	TRPML1 blocker	CtBP-E1A inh	Six1-Eya2 inh	TRPML1 agonist	PINK1 modulator
Cc1ccc(C)c(NC(=S)N2CCN(Cc3ccccc3)CC2)c1	-2.0	-13	-18	1	0.7	0.5%
COc1cc(CCC(=O)N2CCN(c3cccc(C)c3C)CC2)cc(OC)c1OC	-1.5	24	5	-1	2.5	-1.9%
C=CCn1c(SCC(=O)NC2CCCCC2)nnc1-c1ccccn1	1.0	-21	2	-3	-0.3	1.2%
Cc1[nH]c(C)c(S(=O)(=O)Nc2ccc(F)cc2Cl)c1C(=O)N1CCCC1	2.0	-4	5	-1	0.7	0.3%
Cc1ccc2nc(SCC(=O)Nc3ccccc3F)nc(=O)n2c1	-3.8	-17	5	-2	-0.4	-0.9%
CC1=C(C(=O)Nc2ccc(Cl)cc2)C(c2cccs2)n2nc(SCc3cccc(C)c3)nc2N1 (stereo not given)	·	1	·	·	-1.2	1.7%
O=C1c2[nH]nc(-c3ccccc3O)c2C(c2cccc(Cl)c2)N1CC1CCCO1 (stereo not given)	-0.9	76	-28	-14	1.4	1.1%
Cc1ccc(-c2nn(-c3ccccc3)cc2/C=C(\C#N)C(=O)NCc2ccccc2)cc1	-3.5	40	-13	0	0.7	8.3%
CCSC(=S)Nc1c(C)n(C)n(-c2ccccc2)c1=O	5.1	0	0	12	-0.7	14%
COCc1ccc(C(=O)N2CCCC(C(=O)c3ccc(SC)cc3)C2)o1 (stereo not given)	-1.5	-17	0	9	1.8	-0.6%
CCn1c(/C=C2\C(=O)N(C(C)C)c3ccccc32)nc2ccccc2c1=O	-5.5	·	-5	-6	·	3.0%
C/C(=N\OCc1nc2ccccc2c(=O)n1/N=C/c1cc([N+](=O)[O-])ccc1O)c1ccccc1	-0.6	-1	-8	?	-0.5	?
O=S(=O)(c1cccc2nonc12)N1CCN(c2ccccc2F)CC1	-4.1	13	-13	-6	-0.1	0.2%
O=S(=O)(Nc1cnc2ccccc2c1)N1CCCCCC1	-1.2	10	3	-7	3.9	2.0%
COc1cc(OC)cc(C(=O)NC(C)c2cnn(-c3ccccc3C)c2C)c1 (stereo not given)	-0.5	-2	·	1	0.7	1.1%
CN(C)/C=N/c1ncc(C(=O)OC(C)(C)C)s1	0.4	11	0	5	0.7	3.6%
CCCCC(=O)Nc1ccc(NC(=S)NC(=O)CCCCl)cc1OC	-3.5	0	5	9	0.4	1.1%
Cc1ccc2cccc(SCC(=O)NCc3ccco3)c2n1	-2.8	-3	5	1	-0.5	1.0%
O=[N+]([O-])c1ccc(/C([O-])=C(/C(=S)NCc2ccco2)[n+]2ccccc2)cc1	1.0	-17	3	-1	-0.4	3.5%
C=CCOc1ccc(/C=C(\C#N)C(=O)Nc2ccccn2)cc1	0.2	-2	·	0	0.6	2.3%
CC(C)Cc1nnc(NC(=O)C23CC4CC(CC(C4)C2)C3)s1	-1.3	2	·	-2	1.3	4.1%
